High-throughput results deposited in PubChem by National Center for Advancing Translational Sciences (NCATS).
hNpr1 antagonist: human Npr1 receptor antagonism; HEK293 hNpr1 GloSensor cGMP, ANP-stimulated luminescence; Potency, µM (series often up to 46.3 µM), for inactives: at the top dose activity change, negative = inhibition, hits mostly inhibitors; 76,000 compounds, 1.6% hits; AID 1347048; active = well fitted inhibition curve with a large enough effect; inconclusive = small, poorly fitted or top-dose-only effect; inactive = no such curve, though single readings can be large or run the other way;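 note: nearly all actives have a fitted effect of over 60% in size; nearly all hits also lower the signal before the agonist is added; a reference antagonist and vehicle were the controls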
Target sequence (P16066 whole entry, looked up): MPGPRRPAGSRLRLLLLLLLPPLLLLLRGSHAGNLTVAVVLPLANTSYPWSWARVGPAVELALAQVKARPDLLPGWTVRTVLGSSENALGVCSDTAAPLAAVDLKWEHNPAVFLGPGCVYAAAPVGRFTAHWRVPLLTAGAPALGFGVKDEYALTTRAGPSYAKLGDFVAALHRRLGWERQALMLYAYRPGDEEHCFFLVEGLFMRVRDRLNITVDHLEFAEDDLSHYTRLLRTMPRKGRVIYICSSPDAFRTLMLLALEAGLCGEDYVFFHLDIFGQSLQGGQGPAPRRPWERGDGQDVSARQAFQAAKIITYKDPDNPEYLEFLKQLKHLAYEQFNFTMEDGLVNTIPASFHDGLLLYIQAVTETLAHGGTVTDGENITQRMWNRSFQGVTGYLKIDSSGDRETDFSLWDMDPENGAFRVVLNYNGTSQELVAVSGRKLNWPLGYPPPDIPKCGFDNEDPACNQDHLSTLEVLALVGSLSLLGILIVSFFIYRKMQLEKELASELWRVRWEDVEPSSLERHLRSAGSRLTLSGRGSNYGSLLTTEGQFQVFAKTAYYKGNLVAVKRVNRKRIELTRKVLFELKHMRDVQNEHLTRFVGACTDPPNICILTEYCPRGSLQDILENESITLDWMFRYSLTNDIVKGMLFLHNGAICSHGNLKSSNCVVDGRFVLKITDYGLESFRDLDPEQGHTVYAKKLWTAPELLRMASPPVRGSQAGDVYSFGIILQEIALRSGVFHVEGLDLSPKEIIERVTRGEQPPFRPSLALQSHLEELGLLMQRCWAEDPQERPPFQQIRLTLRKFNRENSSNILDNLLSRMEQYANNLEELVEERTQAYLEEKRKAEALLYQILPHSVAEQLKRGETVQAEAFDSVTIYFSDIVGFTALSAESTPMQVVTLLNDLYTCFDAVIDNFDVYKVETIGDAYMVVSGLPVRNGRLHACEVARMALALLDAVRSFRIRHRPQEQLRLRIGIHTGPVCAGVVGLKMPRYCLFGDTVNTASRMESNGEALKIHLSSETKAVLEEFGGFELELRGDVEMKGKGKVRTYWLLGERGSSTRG
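HEK293 cells stably expressing human Npr1 and cGMP GloSensor pGS-40F, loaded 2 h with 2% GloSensor reagent, given compound 30 min at room temperature. Luminescence read before and 20 min after 0.1 nM hNppA.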
The depositor's hits bear a star; ? = inconclusive; [ ] = dose if it differs, or a comment. % is set by controls: 0 for no effect and ±100 for the full control effect; potency is the fitted concentration of half-maximal effect.

SMILES | hNpr1 antagonist
CCOCCn1c(=O)[nH]c2cc(C(=O)N(C)Cc3nccs3)ccc21 | 4.2%
COc1ccc(NC(=O)C2=NO[C@@H]3CN(Cc4ccc(F)cc4)C[C@H]23)cc1 | -11.6%[70.6 µM]
CN(C)C(=O)c1ccnc(-c2nnc3ccc(NCCc4ccccc4)nn23)c1 | -7.1%[70.6 µM]
CO[C@H]1[C@H](NC(=O)Cc2cccnc2)c2ccccc2C12CCNCC2 | 4.7%
CC(C)NC(=O)N1CCC(O)(c2csc(CN3CCc4ccccc4C3)n2)CC1 | -3.0%[70.6 µM]
Cc1ccc(C)c(CN2CC(C(=O)NCc3ccncc3)C3(CCOCC3)C2)c1 (stereo unspecified) | -1.5%
Cc1noc(C2CC3(CCN(C(=O)c4cccnc4C)CC3)CN2C)n1 (stereo unspecified) | 3.2%
O=C(CN1CCCC1=O)NCC1Cn2cccc2C(=O)N1Cc1ccccc1 (stereo unspecified) | 6.7%
COc1ccc(-c2cc(N3CCCC(NC(=O)c4cc(Cl)ccc4OC)C3)n[nH]2)cc1 (stereo unspecified) | -18.4%
Cc1nn2c(c1-c1ccnn1C(C)C)N(C(=O)Cc1ccc(O)cc1)CCC2 | -3.1%[70.6 µM]
Cc1noc(C)c1S(=O)(=O)NCC1(COc2ccc(S(C)(=O)=O)cc2)C[C@@H](O)[C@@H](O)C1 (stereo partly specified) | 6.0%
CC(C)CN1C(=O)COC[C@@H]1[C@H](O)c1ccc(NC(=O)Cc2ccccc2)cc1 | 6.2%[70.6 µM]
Cn1ccc2ccc(-c3nc(C4CCOC4)no3)cc21 (stereo unspecified) | 0.5%
CCc1cc(C2CCCN2C(=O)c2cccs2)on1 (stereo unspecified) | -0.8%
O=C(C1CCC1)N1CCC(Oc2cccc(F)c2)C1 (stereo unspecified) | 3.1%
CSCC(=O)N1CC[C@H](NC(=O)Nc2ccc(F)cc2F)[C@H]1C(=O)N[C@H](Cc1ccccc1)C(N)=O | 1.3%
COc1ccc(C(=O)N2CCOCC(O)(CN3CCCC3)C2)c(OC)c1 (stereo unspecified) | 3.6%
Cn1cc([C@@H](NC(=O)CCc2c[nH]c3ccccc23)C2CC(O)C2)cn1 (stereo partly specified) | 2.7%
Cc1nnnn1CCC(=O)N[C@H]1CN(S(C)(=O)=O)C[C@@H]1C(C)C | -0.2%
O=C(NCc1ccc(F)cc1)N1CC(c2noc(C3CCCN3CC3CC3)n2)C1 (stereo unspecified) | 4.8%
O=C(O)CCn1ncc2cc(OC3CCN(C(=O)CC4CC4)CC3)ccc21 | 2.1%[70.6 µM]
COc1ccc(C(=O)N2C[C@@H](Oc3ccccc3)C[C@H]2C(=O)N2CCCC2)cc1F | -7.8%
COc1ccc(C)cc1NC(=O)CN1C(=O)NC2(CCC(C(C)(C)C)CC2)C1=O (stereo unspecified) | -23.6%
CCSc1ncc(CN2CCN(c3nc(C)cnc3C)CC2)cn1 | -0.7%
O=C(CC1CCCN(c2cnn(CC3CC3)c(=O)c2)C1)NCc1ccc(F)cc1 (stereo unspecified) | -10.2%
O=C(NCCn1cnc2ccccc2c1=O)C1CC(=O)N(c2n[nH]c3ccccc23)C1 (stereo unspecified) | -4.0%
CCc1nc2c(c(-c3ccc(Cl)cc3)n1)CN(Cc1ccc(C)cc1)CC2 | -0.9%
CCc1nc(-c2c3n(c(=O)n(CC(=O)Nc4cc(C)on4)c2=O)CCCC3)no1 | 2.7%
COc1ccccc1Cn1c(-c2ccc(F)cc2)nc(C)c(CCO)c1=O | -10.7%
Cc1nn2c(c1-c1ccccc1OCc1ccccc1)N(C(=O)Cc1ccccn1)CCC2 | ?
O=C1NCCCCCCN(Cc2cccc(F)c2)[C@H]2CCC[C@@H]12 | -15.3%
COc1ccc(-c2noc(-c3cccn3CC(=O)Nc3ccc(C)c(C)c3)n2)cc1F | 0.4%
Cc1nnc2n1CCC(N(C)C(=O)Cc1ccsc1)CC2 (stereo unspecified) | 4.1%
Fc1ccc(Cc2nc(-c3nnn4c3COC(c3ccc(Cl)cc3)C4)no2)cc1 (stereo unspecified) | 12.7%
COc1ccc(C(=O)N2CCCC(c3nc(-c4cnccn4)no3)CCNC(=O)CC2)cn1 (stereo unspecified) | 3.4%
COc1ccccc1-c1[nH]ncc1CN1CCCCCNC(=O)CC1c1ccccc1 (stereo unspecified) | -14.9%
COC(=O)[C@@H]1Cc2ncn(Cc3ccccc3)c2CN1S(=O)(=O)Cc1ccccc1 | -2.7%[70.6 µM]
C[C@@H]1CN(C(=O)c2ccc(Cl)o2)C[C@@]1(O)C1CCC1 | 0.0%
CCC[C@H]1CN(S(=O)(=O)c2ccc(-c3ccn[nH]3)o2)C[C@@H]1N | -18.4%
O=C(CCCc1c[nH]c2ccccc12)NCC(=O)N1CCCCCCNC(=O)CC1c1ccccc1 (stereo unspecified) | -0.4%

4 structures out of the list, sorted by length of the SMILES, low to high:
SMILES | hNpr1 antagonist
O=C(O)CCn1ncc2cc(OC3CCN(C(=O)CC4CC4)CC3)ccc21 | 2.1%[70.6 µM]
CN(C)C(=O)c1ccnc(-c2nnc3ccc(NCCc4ccccc4)nn23)c1 | -7.1%[70.6 µM]
COc1ccc(NC(=O)C2=NO[C@@H]3CN(Cc4ccc(F)cc4)C[C@H]23)cc1 | -11.6%[70.6 µM]
O=C(CCCc1c[nH]c2ccccc12)NCC(=O)N1CCCCCCNC(=O)CC1c1ccccc1 (stereo unspecified) | -0.4%

Later entries
SMILES | hNpr1 antagonist
CCc1noc([C@@H]2CC(F)(F)CN2C(=O)c2ccoc2C)n1 | -4.0%
Cc1ccsc1CN1CCCOCCNC(=O)[C@@H]2CCCC[C@@H]21 | 4.1%
COCCNC(=O)[C@@H]1C[C@H](Oc2cccnc2)CN1C(=O)c1nccn1C | 2.8%
Cc1nc(N2CCC(C(=O)NC3CCCCCCC3)CC2)cc(C(F)(F)F)n1 | 10µM*
O=C(Nc1cnc(-c2ccc(F)cc2)nc1)c1ccco1 | -20.3%
Cc1cnc(C(=O)NCC2Cn3cccc3C(=O)N2CC(C)C)cn1 (stereo unspecified) | -4.6%
CCOc1ccc2c(n1)CCN(C(=O)C1CCOCC1)C2 | -1.5%
O=C(C1CC=CC1)N1CCC([C@@H]2CNC[C@H]2CO)CC1 | 14.0%
O=C(CCC[C@@H]1[C@H]2CCCN3CCC[C@@H](CN1C(=O)C1CCC1)[C@@H]23)NCC1CC1 | 1.4%
Cc1cccc(CN2CCCC3(CCN(c4nc5ccccc5o4)C3)C2=O)c1 (stereo unspecified) | 0.4%
Cc1ncoc1C(=O)N[C@@H]1CN(S(C)(=O)=O)C[C@H]1CN(C)C | 8.0%
Cc1ccc(NC(=O)N2CCCC(Cn3cnc4cccnc43)C2)c(Cl)c1 (stereo unspecified) | -20.0%
CN1CCN(C(=O)C2CCC(=O)N(Cc3cccc(C(F)(F)F)c3)C2)CC1=O (stereo unspecified) | 3.7%
CN1CCCC1c1nc(C2CNC2)no1 (stereo unspecified) | 2.2%
O=C1Nc2ccccc2OCC12CCN(CC1CCCC1)CC2 | 0.0%[70.6 µM]
CC(C)CN1CCn2nc(CNC(=O)N3CCN(C)CC3)cc2C1 | 7.6%
CCN(Cc1c(O)cccc1OC)CC1CCN(CCc2ccccc2C)CC1 | -9.5%
Cc1nc(CN2C(=O)OC3(CCN(Cc4ccc(C(C)C)cc4)CC3)C2(C)c2ccccc2)cs1 (stereo unspecified) | 3.2%
CCc1noc(-c2cn(C3CCN(C(=O)C(C)Oc4ccc(Cl)cc4)CC3)nn2)n1 (stereo unspecified) | -15.4%
COc1ccc(CN2CCc3oc(C)c(C(=O)N4CCN(c5ncccn5)CC4)c3C2)cc1 | -12.7%
O=C(c1ccc(Cl)cn1)N1CCCCC12Cc1ccccc1NC2=O (stereo unspecified) | 0.0%
CCn1nccc1C(=O)NCCC1CCN(C(=O)Nc2cccc(C)c2)CC1 | 4.1%
CC1(COc2ccccc2)COc2ccc(C(=O)N3CCOCC3c3ccncc3)cc2N1 (stereo unspecified) | -24.8%
Cc1cccc(C(=O)N2CCC(n3cnnc3C3CC3)CC2)c1 | 0.0%
O=C(Nc1cccc(-n2cccn2)c1)C1CCCN1C(=O)c1ccsc1 (stereo unspecified) | 4.0%
CN1c2cccnc2CN(Cc2ccc(OC(F)(F)F)cc2)CC[C@H]1CO | 3.1%[70.6 µM]
O=C(c1ccccn1)N1CCC2(CC1)CC(Cc1ccccc1)CCO2 (stereo unspecified) | 2.7%
CC(=O)N1CCC(N2CCOC[C@H]2c2ncc(-c3ccc(Cl)s3)[nH]2)CC1 | -3.5%[70.6 µM]
CC1=C[C@@H](CNC(=O)NC(C)C)[C@H](C(C)C)C[C@H]1Cc1nnc(-c2ccncc2)o1 | ?
COc1ccc(-n2nc(C3CCCN(C(=O)C(C)(C)C)C3)[nH]c2=O)cc1 (stereo unspecified) | 0.0%
COC1C(=O)N(c2cccc(F)c2)C12CCN(S(=O)(=O)c1ccccc1C)CC2 (stereo unspecified) | -15.6%
O=C(Cc1ccc(F)cc1)N1CCOc2ccc(CN3CCc4ccccc4C3)cc2C1 | -13.1%
CN(C)Cc1cc(C[C@@H]2C[C@H](NC(=O)C3CCC3)C2(C)C)no1 | -2.0%[70.6 µM]
COc1ccc(-c2nc3c(c(-c4ccccc4)n2)CN(C(=O)c2ccccc2Cl)CC3)cc1 | 8.3%
CC(=O)c1cc(C(=O)NCc2cccnc2N(C)Cc2ccccc2)cs1 | -1.6%
O=C(N[C@H](c1cccs1)C1CC(O)C1)c1ccc(N2CCOCC2)cc1 (stereo partly specified) | 13.3%
N#Cc1ccc(CN2CCCCCCNC(=O)[C@@H]3C[C@@H](C(=O)NCCc4cnc[nH]4)C[C@@H]32)cc1 | -7.6%
CN(C)C[C@@H]1CN(S(C)(=O)=O)C[C@H]1NC(=O)c1ncccn1 | 6.7%
O=C(C1CC1)N1CCC(c2noc(-c3ccccn3)n2)C1 (stereo unspecified) | 0.8%
CC1(COc2cccnc2)COc2ccc(C(=O)NCCOc3ccccc3)cc2N1 (stereo unspecified) | 8.91µM*

Records above marked active in hNpr1 antagonist:
SMILES | hNpr1 antagonist
Cc1nc(N2CCC(C(=O)NC3CCCCCCC3)CC2)cc(C(F)(F)F)n1 | 10µM*
CC1(COc2cccnc2)COc2ccc(C(=O)NCCOc3ccccc3)cc2N1 (stereo unspecified) | 8.91µM*

The results go on.
SMILES | hNpr1 antagonist
CN1CCC(C2CCN(C(=O)NC3CCCC3)C2)CC1 (stereo unspecified) | 4.7%
CN(C)C1(Cc2cc(COc3ccccc3)on2)COC1 | -0.5%[70.6 µM]
Cc1ccccc1-c1cn[nH]c1C1CCN(C(=O)CCCn2cnnn2)CC1 | -12.2%
O=C(Cc1ccccc1F)N1C[C@@H](CO)[C@H](c2ccccn2)C1 | -0.7%
CCc1ccc(CNC(=O)c2ccc(CN3C(=O)NC4(CCOCC4)C3=O)cc2)cc1 | ?
Cc1cc(C)n(CCC(=O)N2CCc3c(c(C(=O)N4CCOCC4)nn3CCc3ccccc3)C2)n1 | -14.1%
NCc1cccc(-c2ccc3c(c2)C(=O)N2CC[C@H](NC(=O)c4cccc(F)c4)[C@H]2C(=O)N3)c1 | -6.4%
O=C(c1cn(Cc2ccc(Cl)cc2)nn1)N1CCCC(OCc2cccnc2)C1 (stereo unspecified) | -0.3%
CCOCc1nc(C2CCCN(C(=O)c3cccnc3)C2)no1 (stereo unspecified) | -2.4%
Cc1cccc(CN2CCn3c(nnc3[C@@H]3C[C@@H](O)CN3Cc3ccccc3)C2)c1 | -1.6%
Cc1ccc(C2Cn3nnc(C(=O)N4CCN(C(=O)c5cccc(N(C)C)c5)CC4)c3CO2)cc1 (stereo unspecified) | ?
CC(C)CCN1CCc2ncc(C(=O)NCc3ccccc3)n2CC1 | -1.9%[70.6 µM]
O=C(Nc1ccccc1)N[C@H]1[C@H](O)[C@@H](N2CCC(Cc3ccccc3)CC2)[C@@H]2OC[C@H]1O2 | -0.4%
COc1ccc(N2CC(c3noc(-c4cccc(OC)c4)n3)CC2=O)cc1 (stereo unspecified) | 0.8%
N#Cc1ccc(C(=O)N2CCC3(CC2)CN(c2ncccn2)CC3CO)cc1 (stereo unspecified) | 1.0%
CSc1ncccc1C(=O)NC(C)C(=O)N1CCN(c2ccccn2)CC1 (stereo unspecified) | -6.7%
CC1(C)[C@H](Cc2cc(CCO)on2)C[C@@H]1NC1CCC1 | 2.3%[70.6 µM]
COC(=O)[C@@H]1Cc2nc[nH]c2CN1Cc1ccc([N+](=O)[O-])cc1 | 1.7%[70.6 µM]
CC(=O)N1C[C@@H](C(=O)N2CCC(Cc3ccccc3)CC2)[C@H](c2nc(C)no2)C1 | -11.3%
CN1CCN(Cc2nc(C3(O)CCN(C)CC3)cs2)CC1 | 3.3%[70.6 µM]

Ordered by the number under hNpr1 antagonist (falling): three of the compounds above
SMILES | hNpr1 antagonist
CN(C)C[C@@H]1CN(S(C)(=O)=O)C[C@H]1NC(=O)c1ncccn1 | 6.7%
O=C(c1ccc(Cl)cn1)N1CCCCC12Cc1ccccc1NC2=O (stereo unspecified) | 0.0%
O=C(NCCn1cnc2ccccc2c1=O)C1CC(=O)N(c2n[nH]c3ccccc23)C1 (stereo unspecified) | -4.0%

Later entries:
SMILES | hNpr1 antagonist
Cc1ccc(C(=O)N2CC[C@@](C)(O)[C@@H](Cc3ccccc3)C2)cc1C | -7.1%
COc1ccccc1N1CCN([C@H]2[C@@H]3OC[C@@H](O3)[C@@H](NCc3ccccc3O)[C@@H]2O)CC1 | -1.6%
CCN1c2cc(C(=O)Nc3ccc(OC)c(F)c3)ccc2C(=O)N2CCCCC21 (stereo unspecified) | 8.1%
O=C(C[C@@H]1O[C@H](CNC(=O)C2CCCC2)[C@@H](O)[C@H]1O)Nc1ccccc1 | -0.2%[70.6 µM]
COc1ccc(-c2nc3cnccn3c2NCCC(=O)N2CCCCCC2)cc1 | 7.4%
CC(C)c1cc(C(=O)N2CC[C@H](N3CCOCC3)[C@H](CCCO)C2)nc(N)n1 | -3.1%

Not all compounds are listed; count on the stated rates, not on these rows.
